NPYLR7 ag: mosquito NPYLR7 agonism; AID 1259423; hit rate 0.15% among 270,000; HEK293T NPYLR7/Galpha15, GCaMP6s calcium fluorescence; activation, % at 10 µM; in the data active = activation above about 40%;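 note: 0% = vehicle and 100% = reference agonist at the receptor; some compounds past the cut are filed as inactive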
NPYLR7 ag max-min: also measured in NPYLR7 ag; calls as there; activation, %; measured here: Max-Min RFU normalised activation; some inactives read as strong as hits;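 span of the calcium signal over five minutes; 0% = vehicle and 100% = native peptide agonist; compound fluorescence can raise it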
* = called active by the depositor; & = joins results of further samples. Not all compounds are listed. The share of hits here may be higher or lower than overall.

Values in the order: NPYLR7 ag max-min | NPYLR7 ag
- COc1ccc(CSc2nc3cc(S(=O)(=O)N4CCOCC4)ccc3n2CCCN2CCOCC2)cc1C
    -7 | -6
- Cc1sc2ncn(CC(N)=O)c(=O)c2c1C
    -2 | 2
- O=C(Nc1cccnc1N1CCOCC1)N1CCc2ccccc2C1
    3 | 4
- CCOC(=O)c1csc(CN(CCCOC)C(=O)Nc2ccc(C(F)(F)F)cc2)n1
    19 | 9
- Cc1ccc2[nH]cc(C3CCN(S(=O)(=O)c4cc(C)c(Cl)cc4Cl)CC3)c2c1
    14 | 27
- COc1ccc(N2CCC(NCc3ccc(C)o3)CC2)cc1
    2 | 5
- CN(CCC1CCCCC1)C(=O)c1c(O)cnc2ccccc12
    3&-5 | 5&4
- COc1ccc(C(=O)N2N=C(C)CC2(O)C(F)(F)F)cc1 (stereo not drawn)
    12 | 18
- Cc1nc(CNC(=O)NC2CC(c3cccc(Cl)c3)C2)no1 (stereo not drawn)
    1 | 5
- CC(=O)c1cc(CCC(=O)O)oc1C
    4 | 6
- CS(=O)(=O)c1cccc(C(=O)N2CCC(Cc3cccc(C(N)=O)c3)C2)c1 (stereo not drawn)
    1 | 3
- Cc1cccc(NC(=O)C2CCCN(C(=O)CC3CCCCC3)C2)n1 (stereo not drawn)
    -3 | -5
- COCC(c1ccccn1)N(C)Cc1ccnc2ccccc12 (stereo not drawn)
    2 | 2
- CC(=O)Nc1ccc(Cl)c(C(=O)N(C)Cc2nc3ccccc3n2C)c1
    3 | 6
- Cc1ccc2nc(Cn3cc(C(F)(F)F)cc(Cl)c3=O)cc(=O)n2c1
    7 | 3
- C=CCn1c(SCC(=O)NCCOC)nc2c([nH]c3ccccc32)c1=O
    12 | 16
- Cn1c(=O)c2c(nc(CN(Cc3ccccc3)Cc3ccccc3)n2Cc2ccccc2)n(C)c1=O
    2 | 1
- O[C@@H]1CN(Cc2cccn2-c2ncccn2)CC[C@H]1c1ccc(F)cc1
    7 | 11
- Brc1cc(CNC(c2ccccc2)c2ccccn2)cs1 (stereo not drawn)
    -4 | -1
- Cc1nn(-c2ccccc2)c2c1C(c1ccc(OC(F)F)cc1)C(C#N)C(=N)O2 (stereo not drawn)
    -6 | -1
- CCN1C(=O)C2(SC(C)(C)CN2C(=O)Nc2ccc(Cl)cc2)c2ccccc21 (stereo not drawn)
    2 | -2
- CCC(O)CN(Cc1ccc(F)cc1)Cc1cccs1 (stereo not drawn)
    13 | 1
- COc1ccc(Cc2nc(CCc3ccccc3)n[nH]2)cc1C
    8 | 9
- CC(C)=CCCC1=CCC2C(=O)NNC(=O)C2C1 (stereo not drawn)
    1 | 11
- O=C(COc1ccc(N2CCCC2=O)cc1)NC1CC1c1cccc(F)c1 (stereo not drawn)
    3 | 5
- CC(=O)Nc1ccc(CNC2CCc3cc(Br)ccc32)cc1 (stereo not drawn)
    11 | 9
- Cc1ccc(C)c(CC(=O)N2CCOCC2c2cc(C(=O)NCc3ccccc3)no2)c1 (stereo not drawn)
    -1 | 1
- COc1cccc(-c2nc3ccc(C(=O)N(C)C(C)c4ccncn4)cc3o2)c1 (stereo not drawn)
    -8 | 0
- CCCCNc1c(C(=O)OCC)c(C)nc2c1cnn2CC
    -8&-12 | 4&4
- CCOc1ccc(-n2nnnc2CNS(=O)(=O)c2ccc(C)cc2)cc1
    0 | 1
- CCCCCc1ccc(C(=O)Nc2ccc(-c3cn4cccc(C)c4n3)cc2)cc1
    36 | 26
- Cc1cccc(C(=O)Nc2c3c(nn2-c2ccccc2C)CSC3)c1
    16 | 9
- Cn1nc([N+](=O)[O-])nc1Sc1nnnn1C1CCCCC1
    -4 | 0
- CC(=O)N(Cc1cc2ccc(C)cc2[nH]c1=O)CC1CCCO1 (stereo not drawn)
    -5 | -4
- CC[n+]1c(-c2ccccc2)c2cc(N)ccc2c2ccc(N)cc21
    -8&-18 | -5&-7
- Cc1cc(C)n2nc(C)c(C(=O)N3CCC4(CN(C)C(=O)O4)C3)c2n1 (stereo not drawn)
    18 | 24
- N#Cc1cccc(NC(=O)CSc2nccn2C2CC2)c1
    -7 | -5
- CCCCCn1c(NC(C)CC)nc2c1c(=O)[nH]c(=O)n2C (stereo not drawn)
    4 | 12
- CC12CCC(=O)N1C(C(=O)OCC(=O)Nc1ccc(-c3ccccc3)cc1)CS2 (stereo not drawn)
    -2 | -1
- CCC(CC)C(=O)N(Cc1ccco1)Cc1cc(NC(=O)C2CCCC2)ccc1N(C)C
    18 | 20
- CC(NC(=O)c1cccc(-c2ccccc2F)c1)c1nn[nH]n1 (stereo not drawn)
    1 | 3
- CCCCCN1CCN(c2nc3c(c(=O)[nH]c(=O)n3C)n2Cc2ccccc2C)CC1
    -10 | -7
- Cc1cc(Br)c(S(=O)(=O)NC(C)C)cc1C
    1 | 4
- CCCNC(=O)c1cc(NC(=O)Nc2cccc3ccccc23)ccc1N1CCCC1
    2 | -5
- COc1ccccc1CSc1nnc(-c2ccc(OC)c(OC)c2)o1
    7 | 20
- CC(CNC(=O)c1csc(C(C)(C)C)n1)S(C)=O (stereo not drawn)
    8 | 9
- c1ccc(CCc2noc(-c3ccc(N4CCOCC4)nc3)n2)cc1
    13 | 23
- COc1ccc(C(=O)OCN2C(=O)c3ccccc3C2=O)cc1
    10 | 9
- Cc1cn2c3c(=O)n(CCN4CCOCC4)c(=O)n(C)c3nc2n1C(C)c1ccccc1 (stereo not drawn)
    2 | 0
- COc1cc(Br)c(OC)c(C(=O)O)c1
    8 | 7

Next part:
Values in the order: NPYLR7 ag max-min | NPYLR7 ag
- COCCCN(CC(=O)N(Cc1ccco1)Cc1cccn1C)C(=O)CCc1ccccc1
    -3 | -8
- CCc1nc2ccc(C(=O)NCCCn3ccnc3)cn2c1N(CC)C(=O)NCCc1ccccc1
    -16 | -3
- Cc1cc(C(=O)NC(C)(C)c2ccc(Br)cc2)on1
    4 | 4
- CC1=C(C(=O)Nc2cccc(Cl)c2)C(c2ccc(Cl)cc2)NC(=O)N1 (stereo not drawn)
    -16 | -12
- COc1ccc(CC(=O)N(C)CC2CCCN(CCc3cccc(C(F)(F)F)c3)C2)cc1 (stereo not drawn)
    -3 | 2
- CCC(C)(C)NC(=O)CN1CCN(S(=O)(=O)c2cccc(F)c2)CC1
    16 | 0
- COCCNC(=O)C(C1CCCC1)N1CCN(C(=O)c2ccccc2F)CC1 (stereo not drawn)
    -9 | -13
- Cc1c(Cl)c(C(F)(F)F)nn1CC(=O)Nc1cccc(C(F)(F)F)c1
    -1 | 2
- CCC(C)NC(=O)N(C)C1CCN(c2ccc(Cl)cc2)CC1 (stereo not drawn)
    -3 | -1
- COC(=O)c1ccc(OC(=O)c2cccc(CN3C(=O)c4ccccc4C3=O)c2)cc1
    4 | 2
- O=[N+]([O-])c1ccccc1S(=O)(=O)Nc1ccc(S(=O)(=O)N2CCCC2)cc1
    -5 | -2
- COc1ncccc1NC(=O)C(=O)NCc1csc(C(C)(C)C)n1
    3 | 4
- COCCCN(CC(=O)N(Cc1ccccc1)Cc1ccc(C)s1)C(=O)Nc1ccc(F)c(Cl)c1
    22 | 16
- O=C(Oc1ccc(-c2nc(-c3ccncc3)no2)cc1)c1ccccc1
    -13 | -8
- CCc1nnc(NC(=O)c2ccc(O)c(Cl)c2)s1
    -2 | -1
- CCOc1cc(C)c(Cl)cc1S(=O)(=O)N1CCNC(C(=O)O)C1 (stereo not drawn)
    2 | 4
- CC1=C(c2ccc(C)cc2)S(=O)(=O)NC1=NC(C)c1ccc2c(c1)OCCO2 (stereo not drawn)
    4 | 7
- COc1ccccc1N1CCN(c2ccc(NC(=O)Nc3c(C(C)C)cccc3C(C)C)cc2C(=O)NCCCN2CCOCC2)CC1
    11 | -2
- CC(=O)Nc1ccsc1C(=O)N(C)C1Cc2ccccc2C1
    -8 | 0
- COc1ncccc1C(=O)NCC1(c2ccccc2)CC1
    7 | 10
- CCOCCOc1nc(-c2ccccc2F)n(-c2ccc(NC(=O)Nc3cccc(OC)c3)cc2)n1
    1 | -4
- CC1=C(Cl)c2ccccc2S1(=O)=O
    -4 | -3
- Cc1csc(C(C)NC(=O)Nc2cccc(-n3cccn3)c2)n1 (stereo not drawn)
    5 | 2
- COc1ccc(NC2CCCN(C(=O)CCc3cccs3)C2)cc1OC (stereo not drawn)
    0 | 3
- NS(=O)(=O)NCC(Cc1ccccc1)c1ccccc1 (stereo not drawn)
    8 | 11
- CCOC(=O)C1=C(C)NC(C)=C(C(=O)OCC)C1c1ccccc1
    3 | 3
- Cc1ccccc1CCC1CCCN(C(=O)CCc2cccnc2)C1 (stereo not drawn)
    -1 | 4
- O=C1c2cccc([N+](=O)[O-])c2C(=O)N1CNc1ccc(Cl)cc1Cl
    -6 | -1
- Cc1cc(C(=O)NNC(=O)C=Cc2ccco2)c(C)o1
    14 | 9
- CC(O)CNCCCCOc1ccc(OCc2ccccc2)cc1 (stereo not drawn)
    9 | -6

Complete entries from above:
Results for COc1ccc(NC2CCCN(C(=O)CCc3cccs3)C2)cc1OC (stereo not drawn) = NPYLR7 ag max-min = 0; NPYLR7 ag = 3
Results for NS(=O)(=O)NCC(Cc1ccccc1)c1ccccc1 (stereo not drawn) = NPYLR7 ag max-min = 8; NPYLR7 ag = 11

Next section.
Values in the order: NPYLR7 ag max-min | NPYLR7 ag
- COc1cc(C)nc(N(C)S(=O)(=O)c2ccccc2Cl)n1
    -1 | 1
- COc1coc(C(=O)NCc2ccc3c(c2)OCO3)cc1=O
    5 | 10
- CC(C)Cc1ccc(C(=O)C2CCN(C(=O)C(C)n3cncn3)CC2)cc1 (stereo not drawn)
    11 | -1
- C=CCN(CC(=O)N1CCc2sccc2C1c1ccc(F)cc1)C(=O)c1cccc(F)c1 (stereo not drawn)
    9 | 0
- COc1cc2c(cc1OC)C(c1ccccc1)N(C(=O)C1CC(=O)N(Cc3ccccc3)C1)CC2 (stereo not drawn)
    2 | -5
- Cc1cc(CN(C)C(=O)c2ccc3oc(Cc4ccc(Cl)cc4)nc3c2)on1
    12 | 16
- COc1ccc(S(=O)(=O)NCCOc2cc(N3CCCC3)ncn2)cc1F
    2 | 1
- CN1CCN(c2ncnc3ccc(-c4cccc(-c5ccn[nH]5)c4)cc23)CC1
    15 | 25
- CCc1cccc(N(C)C(N)=Nc2cccc3ccccc23)c1
    5 | 1
- O=C(NCc1ccco1)c1coc(CN(Cc2cccc(C(F)(F)F)c2)Cc2ccc(Cl)cc2Cl)n1
    -3 | -4
- O=C(O)c1cc2cc3c(cc2[nH]1)OCCO3
    -1&7 | 1&1
- CCN(CC)CCSc1nc(O)c(CCC(C)C)c(=O)[nH]1
    3 | 5
- COc1cccc(NC(=O)NC(Cc2ccccc2)c2nnc(SCc3ccc(F)cc3)n2-c2ccc(C)cc2)c1 (stereo not drawn)
    11 | 4
- Cc1cc(C(F)(F)F)nc(CNC(=O)C2CCC(=O)N(Cc3ccc(Cl)cc3)C2)n1 (stereo not drawn)
    -3 | -1
- Cc1ccc(NC(=O)Cn2nnc(C(=O)NCc3ccccc3Cl)c2N)c(C)c1
    -11 | -8
- O=C(Nc1ccc(Oc2cccnc2)cc1)c1ccccc1C1CCNC1 (stereo not drawn)
    5 | 1
- CC(=O)c1cccc(NC(=O)NCc2cccc(NC(=O)N(C)C)c2)c1
    6 | 7
- COc1cccc(OCc2nc(C(=O)NC(C)C)cs2)c1
    -14 | -5
- COc1cc(OC)cc(C(=O)Nc2nc(-c3ccc(Br)cc3)cs2)c1
    -14 | -8
- Cc1nc2nc(-c3ccc(F)cc3)cc(C(=O)O)c2[nH]1
    1 | 2
- COC1(OC)c2nonc2C(OC)(OC)c2nonc21
    16 | 25
- Cc1ccnc(SCCn2c(N3CCN(c4ccccc4)CC3)nc3c2c(=O)n(C)c(=O)n3C)n1
    26 | 1
- CN/C(=C\[N+](=O)[O-])NCCSCc1ccc(CN(C)C)o1
    0&13&-13&-38 | -14&15&-9&5
- O=C(NCCc1ccccn1)C(=O)c1ccc(C2CCCCC2)cc1
    -18 | -10
- CC(C)c1cc(CN2CCN(Cc3ccsc3)C(CCO)C2)[nH]n1 (stereo not drawn)
    6 | 6
- CCc1nnc(NC(=O)c2cc(Cl)c3c(c2)OCO3)s1
    1 | 5
- O=C1OC(c2ccccc2)C2(CCCC2)C(=O)C12CCCC2 (stereo not drawn)
    2 | 3
- Cc1c(F)cccc1NC(=O)CNC(C)c1cc(F)cc(F)c1 (stereo not drawn)
    -6 | -6
- COc1cccc(C(=O)Nc2c(-c3cccc(F)c3)nc3cc(C)ccn23)c1
    -6 | -13
- COc1ccc(CCN(Cc2ccc(C)s2)C(=O)CN(C(C)C)S(=O)(=O)c2ccc(Br)cc2)cc1OC
    -8 | -3

Structures above that have a tert-butyl group, in the order listed:
Values in the order: NPYLR7 ag max-min | NPYLR7 ag
- CC(CNC(=O)c1csc(C(C)(C)C)n1)S(C)=O (stereo not drawn)
    8 | 9
- COc1ncccc1NC(=O)C(=O)NCc1csc(C(C)(C)C)n1
    3 | 4

The main list resumes with the 2 entries that preceded the break.
Values in the order: NPYLR7 ag max-min | NPYLR7 ag
- COc1cccc(C(=O)Nc2c(-c3cccc(F)c3)nc3cc(C)ccn23)c1
    -6 | -13
- COc1ccc(CCN(Cc2ccc(C)s2)C(=O)CN(C(C)C)S(=O)(=O)c2ccc(Br)cc2)cc1OC
    -8 | -3
- Cc1oc(-c2cccc(Oc3ccccc3)c2)nc1CN1[C@@H]2CC[C@H]1CNC(=O)C2
    9 | 10
- CCOC(=O)CSc1nc(N)c(C#N)c(CC)c1C#N
    -10 | -2
- CC1(C)O[C@@H]2C[C@@](OCc3ccccc3F)(C(=O)NCCN3CCCC3)CC(OCC3CC3)[C@@H]2O1 (stereo partly drawn)
    7 | 7
- O=C(CCCO)NCCc1nc2ccccc2n1Cc1c(F)cccc1Cl
    -6 | -8
- Cc1ccc(C)c(C2CC(c3ccc(F)cc3)=NN2C(=O)CN2CCC3(CC2)OCCO3)c1 (stereo not drawn)
    5 | -2

2 compounds drawn at random from those above:
Values in the order: NPYLR7 ag max-min | NPYLR7 ag
- CC1(C)O[C@@H]2C[C@@](OCc3ccccc3F)(C(=O)NCCN3CCCC3)CC(OCC3CC3)[C@@H]2O1 (stereo partly drawn)
    7 | 7
- CCOC(=O)CSc1nc(N)c(C#N)c(CC)c1C#N
    -10 | -2
